Screens deposited in PubChem BioAssay by several laboratories.
BJeLR lethal: BJeLR cell viability loss; BJeLR (HRASV12) viability, CellTiter-Glo ATP luminescence, 48 h; reference of the scale not given here; inhibition, % (test concentration not listed); 0.17% of 300,000 active;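 active means replicate mean above 50%; inconclusive means above 50% but judged a plate artefact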;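 further: 50 nL library stock added to about 25 µL; numbers are from one replicate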
RN4220 kill: kills Staphylococcus aureus RN4220; S. aureus RN4220 growth, OD600, 16 h; inhibition, % (no concentration beside the values); 0.33% of 330,000 active;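 active means z-score of -3 or lower and OD600 up to 0.18 on both plates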;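 further: plate controls were untreated cells for no effect and reference antibiotic for full effect; stock transfer was 100 nL into about 80 µL; one replicate is shown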
Bead autofluor: flagged as autofluorescent in microsphere protease counterscreen; compound autofluorescence counterscreen, microsphere flow cytometry; hits give high values; fluorescence intensity (no concentration beside the values); 3.1% of 360,000 active; AID 624483;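 active means at least 3 SD above the mean of all compounds, about 16000 in these data; inconclusive means too few beads counted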;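 further: 100 nL of 1 mM stock went into each well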
Mtb hypoxia inh: Mtb hypoxia fluorescent reporter inhibition; M. tuberculosis hypoxia-regulated fluorescent reporter, fluorescence; AID 1159583; 0.1% of 300,000 active; fluorescence inhibition, % (test concentration not listed);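 active means 35 to 45% if threefold the growth effect, above 45% if 1.5-fold the growth effect; inactive means the rest, general growth blockers included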;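 further: wells of about 50 µL received 100 nL stock; 0% = vehicle wells and 100% = reference inhibitor wells; whole bacteria with a GFP reporter of the hypoxia response; strong numbers were not always called active; many hits fall short of the cut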
PrP UTR inh: inhibition of PrP 5' UTR reporter expression. AID 488862. 0.35% of 340,000 active. cell-based PrP 5' UTR mRNA reporter, plate reader. inhibition, % (test concentration not listed);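 active means every replicate at 50% or more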;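 further: 0 = median of the neutral control wells; tested in H4 reporter cells; numbers are from one replicate; inactives centre near -14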
ugtP null kill: kills S. aureus RN4220 lacking UgtP; S. aureus RN4220 ugtP deletion, OD600 growth, 16 h; some inactives read as strong as hits; growth inhibition, % (concentration not given with the values); 0.54% of 330,000 active; AID 1259309;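 active means z-score under -3 and OD600 up to 0.15 on both plates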;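 further: plate controls were untreated wells for no effect and antibiotic for full effect; wells of about 80 µL received 100 nL stock; the first replicate is given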
Mtb hypoxia inh growth: also measured in Mtb hypoxia inh; calls as there; growth inhibition, %; measured here: M. tuberculosis growth (absorbance);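 0% = vehicle and 100% = reference antibiotic; read after six days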
Active calls of the source: *; ? = inconclusive; nt = no result given.

SMILES	BJeLR lethal	RN4220 kill	Bead autofluor	Mtb hypoxia inh	Mtb hypoxia inh growth	PrP UTR inh	ugtP null kill
COc1cccc(C(=O)NNC(=O)C(=O)Nc2cccc3ccccc23)c1	-3	0.5	4501	3	0	2	-4
CNc1cc(N2CCCCCC2)ccc1[N+](=O)[O-]	-12	4.2	7283	7	6	-124	8
CC(C)OC(=O)c1c(N)sc2c1CCCC2	nt	7.7	10660	6	15	6	-1
CCc1nnc2sc(-c3ccc(NC(=O)c4ccco4)cc3)nn12	4	5.3	16661*	13	9	-6	-6
COC(=O)[C@@]12CCCCN1C(c1ccc(SC3CCCCC3)c(OC)c1)C1C(=O)N(C)C(=O)C12 (stereo partly specified)	nt	2.2	nt	4	8	nt	5
CCCC1(C)C(C#N)C(=O)NC(=O)C1C#N (stereo unspecified)	nt	2.0	3744	12	9	14	1
COc1ccccc1N1CCN(c2cc(N3CCCC3)nc(C)n2)CC1	3	3.1	6690	nt	nt	-9	3
CC(C)c1nnc(NC(=O)CCN2C(=O)c3ccccc3C2=O)s1	-6	5.2	8355	1	0	-31	0
O=C(CN1C(=O)NC2NC(=O)NC21)NN=Cc1ccccc1F (stereo unspecified)	nt	2.4	nt	8	5	nt	0
CCOC(=O)c1ccc(NS(=O)(=O)c2c(C)nc3sccn3c2=O)cc1	0	-5.2	5794	11	4	-23	14
COc1ccc(C2/C=C\CN(CC(C)C)CC(=O)N2Cc2cccc(F)c2)cc1 (stereo unspecified)	nt	5.3	3189	1	7	-37	6
COc1cc(C=NN2CCN(c3ccccc3OC)CC2)ccc1OC(C)=O	nt	0.5	nt	4	1	nt	2
Cc1ccc2occ(CN3CCN(c4ccccc4)CC3)c(=O)c2c1	8	2.6	11084	8	4	-15	4
O=C(CCc1ccccc1)N/N=C\c1cc2c(cc1Br)OCO2	3	nt	5348	nt	nt	-13	nt
CC1CCC/C(=C\Nc2ccc(C(=O)O)cc2)C1=O (stereo unspecified)	11	nt	5072	nt	nt	-92	nt
Cc1nc2nc(-c3ccccc3)nn2c(C)c1C	2	2.2	4202	5	3	-79	6
CN(CC(=O)Nc1ccccc1Cl)C(=O)COC(=O)C1=COCCO1	-1	-0.3	?	-7	-1	-15	2
CCOc1ccc(CN(Cc2ccco2)C(c2cccs2)c2nnnn2C(C)(C)C)cc1 (stereo unspecified)	-3	2.7	2937	3	-1	-13	33
Oc1ccc(-n2nnnc2SCc2c(F)cccc2Cl)cc1	5	-6.9	3256	11	8	-3	23
CN(C)c1ccc(-n2cc3c(=O)n(C)c(=O)n(C)c3c2)cc1	-9	4.3	4082	nt	nt	-41	1
COc1ccc(C(=O)C(C)OC(=O)CCN2C(=O)C3CC=CCC3C2=O)cc1 (stereo unspecified)	nt	-0.8	4177	0	-1	-16	1
O=C(Cn1nc(-c2ccccc2)ccc1=O)NCC1CCCO1 (stereo unspecified)	5	-1.9	23626*	11	11	-25	-7
C=CCn1c(=O)/c(=C2/SC(C)=C(C)N2CC)s/c1=C1/C(=O)N(CC)C(=S)N1c1ccccc1	2	nt	2529	nt	nt	4	nt
CC(C)N(C(=O)Cn1cc(S(=O)(=O)CC(=O)NC2CCCCC2)c2ccccc21)C(C)C	-2	4.2	4288	-2	-4	-9	-4
O=C1C=CC(=O)N1c1ccc(O)cc1	9	3.6	4317	3	1	-14	3
Cc1ccccc1NC(=O)c1ccc(C)c(S(=O)(=O)Nc2cccnc2)c1	-2	-3.8	6306	-12	14	5	-4
Cc1ccc2nc(N(CCCN(C)C)C(=O)CS(=O)(=O)c3ccccc3)sc2c1	-1	2.6	nt	5	-1	-14	4
COc1ccc(S(=O)(=O)N2CCCC(C(=O)NCC3CCCO3)C2)cc1Cl (stereo unspecified)	8	-0.2	5654	-1	-1	-18	4
CSCCC(NC(=O)c1ccco1)C(=O)NCCc1ccc(F)cc1 (stereo unspecified)	nt	5.3	4633	8	-4	nt	9
Cc1ccccc1N(C)S(=O)(=O)c1nnc(NC(=O)c2ccccc2F)s1	2	5.1	5724	8	3	-22	1

Taken from above:
O=C1C=CC(=O)N1c1ccc(O)cc1 in RN4220 kill is listed with 3.6
O=C(Cn1nc(-c2ccccc2)ccc1=O)NCC1CCCO1 (stereo unspecified) in ugtP null kill is listed with -7
COc1ccc(C(=O)C(C)OC(=O)CCN2C(=O)C3CC=CCC3C2=O)cc1 (stereo unspecified) in PrP UTR inh is listed with -16
CSCCC(NC(=O)c1ccco1)C(=O)NCCc1ccc(F)cc1 (stereo unspecified) in RN4220 kill is listed with 5.3
Cc1ccc2nc(N(CCCN(C)C)C(=O)CS(=O)(=O)c3ccccc3)sc2c1 in PrP UTR inh is listed with -14
C=CCn1c(=O)/c(=C2/SC(C)=C(C)N2CC)s/c1=C1/C(=O)N(CC)C(=S)N1c1ccccc1 in Bead autofluor is listed with 2529

(next part)
SMILES	BJeLR lethal	RN4220 kill	Bead autofluor	Mtb hypoxia inh	Mtb hypoxia inh growth	PrP UTR inh	ugtP null kill
CN(C)CCNc1cc(-c2ccncc2)nc2ccccc12	4	2.0	4830	3	7	-22	13
O=[N+]([O-])c1cccc(-c2ccc(C(=S)N3CCN(c4ccc(F)cc4)CC3)o2)c1	9	2.9	6809	13	2	-6	8
O=C(CNC(=O)c1ccccc1F)NN=C/C=C/c1ccccc1	nt	-8.0	nt	-8	3	nt	-4
CCSC1=C(C#N)C(c2cccc(Br)c2)CC(=O)N1 (stereo unspecified)	-9	6.7	10166	4	2	-24	1
Cc1cc(-c2nc3ncccc3o2)ccc1NC(=S)NC(=O)c1ccco1	-3	9.2	2257	5	5	-18	-13
COc1nc(NN=Cc2ccccc2F)nc(N2CCCCC2)n1	nt	1.4	nt	3	1	nt	2
O=[N+]([O-])c1ccccc1C=NNC1=NCCN1	nt	1.8	nt	-12	7	nt	2
CC1(c2nnc(-c3ccc(F)cc3)o2)CC(c2cccc(Cl)c2)=NO1 (stereo unspecified)	15	6.6	2953	13	7	-21	7
CCC(C)(C)NC(=O)CN(C(=O)CCC(=O)Nc1nccs1)c1ccc2c(c1)OCO2	-7	-0.9	4101	-2	-1	-4	3
Cc1ccnc(NC(=O)C2CCN(S(=O)(=O)c3cccc4nonc34)CC2)c1	8	0.8	2699	nt	nt	-3	6
CCOc1ccc(OCC)c(NC(=O)CN2CCN(C(=O)c3ccco3)CC2)c1	2	1.3	4562	8	19	-13	2
Cc1ccc(-c2cc(C(=O)NN=Cc3c[nH]c4ccccc34)n[nH]2)o1	nt	1.3	nt	13	1	nt	-16
CC1CCCN(C(=O)c2ccc([N+](=O)[O-])o2)C1 (stereo unspecified)	-4	7.6	6701	-6	6	-6	-1
NC(=O)CC[C@H](NC(=O)c1ccc(Cl)cc1)C(=O)NNC(=O)COc1cccc(Br)c1	nt	0.6	3560	9	3	-30	5
CCOC(=O)c1cc(-c2ccc(N3CCOCC3)cc2)nn1-c1ccccc1C(=O)O	-2	nt	4054	nt	nt	-18	nt
Cc1c(C(=O)NN=Cc2cccs2)nnn1-c1nonc1N	nt	2.4	nt	3	3	nt	8
O=C(COc1ccc2ccccc2c1)NCC1CCCO1 (stereo unspecified)	-9	-1.6	6113	-3	15	-4	2
COc1cc(/C=N/n2cnc3scc(-c4cccs4)c3c2=O)cc(OC)c1OC	5	nt	2116	nt	nt	-11	nt
CCc1ccc(NC(=O)NNC(=O)c2ccc3ccccc3c2O)cc1	7	-4.1	5417	13	0	-4	-2
O=C(c1ccccc1)c1ccc(OCC(O)CN2CCCC2)cc1 (stereo unspecified)	11	0.5	3685	-4	-4	-13	1
C[N+](C)(CC#Cc1ccccc1)CC(=O)c1ccc(Cl)cc1	8	16	2785	20	3	-36	-8
CCOC(=O)c1c(C)[nH]c(N=Nc2ccc(C)cc2)c1C	1	-3.5	8930	0	-7	-145	-6
CCOC(=O)c1c(C)c(C(=O)Nc2cc(F)ccc2F)c(C)n1C	-3	8.8	2116	7	11	-32	-5
COc1ccc(OC)c2[nH]c(=O)c(CCNC(=O)C(C)(C)C)cc12	-8	1.6	5751	5	8	4	8
CCc1c(C(C)O)oc2ccc3c(C)cc(=O)oc3c12 (stereo unspecified)	-8	5.2	nt	-2	1	nt	4
Cc1ccc(S(=O)(=O)N/N=C/c2ccc(OCC(=O)N3CCOCC3)cc2)cc1	-2	nt	4304	nt	nt	-14	nt
Cc1c(C)n2c(SCC(=O)N3CC(C)OC(C)C3)nnc2[nH]c1=O (stereo unspecified)	2	3.0	nt	3	6	-25	4
O=C(c1cccc(S(=O)(=O)NCc2ccccc2)c1)N1CCCC(C(F)(F)F)C1 (stereo unspecified)	-4	3.1	nt	-12	2	-7	-2
COc1cc(OC)c(OC)cc1/C=C1\SC(N2CCCCC2)=NC1=O	-5	0.4	3108	7	8	-4	6
Cc1cc(-c2n[nH]c(=S)n2/N=C/C=C/c2ccccc2)n[nH]1	-3	nt	2586	nt	nt	-26	nt

Ordered by SMILES length (low to high): part of the list above
SMILES	BJeLR lethal	RN4220 kill	Bead autofluor	Mtb hypoxia inh	Mtb hypoxia inh growth	PrP UTR inh	ugtP null kill
CCCC1(C)C(C#N)C(=O)NC(=O)C1C#N (stereo unspecified)	nt	2.0	3744	12	9	14	1
CC1(c2nnc(-c3ccc(F)cc3)o2)CC(c2cccc(Cl)c2)=NO1 (stereo unspecified)	15	6.6	2953	13	7	-21	7
O=C(c1cccc(S(=O)(=O)NCc2ccccc2)c1)N1CCCC(C(F)(F)F)C1 (stereo unspecified)	-4	3.1	nt	-12	2	-7	-2

Remaining list, next part.
SMILES	BJeLR lethal	RN4220 kill	Bead autofluor	Mtb hypoxia inh	Mtb hypoxia inh growth	PrP UTR inh	ugtP null kill
COc1ccc(S(=O)(=O)NCC(=O)NCc2cc(=O)n(C)c(=O)n2C)cc1	3	4.7	3464	1	-4	-1	8
CC1=C(C(=O)N2CCOCC2)C(c2ccc(C)cc2)NC(=S)N1 (stereo unspecified)	nt	4.4	2702	12	-5	-7	10
Cc1ccccc1-c1cc(C(=O)NCc2ccco2)n(CC2CC(c3cccnc3)=NO2)n1 (stereo unspecified)	nt	6.8	2798	7	16	-19	4
O=CN1c2ccccc2CSc2ccccc21	-18	-2.3	nt	5	12	nt	-3
CC(C)(C)C(=O)OC[N+](C)(C)CCOC(=O)C(O)(c1ccccc1)C1CCCC1 (stereo unspecified)	-20	12	3253	0	7	-15	4
COc1ccccc1N1CCN(C(=O)c2ccc(CN3CCOCC3)cc2)CC1	-3	1.6	3230	-4	-1	-11	2
COc1cccc(CNC(=O)C2CCCN(C(=O)c3ccc(Cl)cc3)C2)c1 (stereo unspecified)	nt	3.2	8084	13	9	-23	15
COc1ccccc1NC1C=CS(=O)(=O)C1 (stereo unspecified)	-2	0.9	10355	3	9	-24	1
CCCCN(C(=O)C1CC(=O)N(Cc2ccc(C)cc2)C1)c1c(N)n(CC(C)C)c(=O)[nH]c1=O (stereo unspecified)	0	2.6	5980	2	0	-16	12
O=[N+]([O-])c1ccc(N=Nc2c(Cl)cc(O)cc2Cl)cc1	102*	100*	2689	-5	-8	nt	99*
COc1ccccc1Nc1ncnc2sccc12	-1	2.5	3062	0	-9	-10	-2
CC(C)N(C(=O)Cn1cnc2c(cnn2-c2ccccc2Cl)c1=O)C(C)C	1	2.6	15656	0	-4	-16	10
Cc1ccccc1NC(=O)Cn1c(C)nc2ccc(NC(=O)C3CC3)cc2c1=O	-6	3.7	9611	-2	15	-26	6
O=C(Nc1ccccc1C(=O)O)C1=NN=CC1	3	-0.8	3912	7	-6	-26	-1
Cc1ccc(NC(=O)Cn2nnc(C(=O)NCCc3ccccc3)c2N)c(C)c1	15	-0.8	4235	11	3	-31	-4
C=CCn1c(CCC(O)CCCCC)n[nH]c1=S (stereo unspecified)	-4	2.5	2392	14	14	-3	6
COCCN(C(=O)CSc1nc2ccccc2c(=O)n1CC(C)C)c1c(N)n(Cc2ccccc2)c(=O)[nH]c1=O	8	7.4	3903	6	8	-23	2
O=C1OC(c2ccccc2)Cc2cc(C(=O)N3CCN(c4ccc(F)cc4)CC3)ccc21 (stereo unspecified)	nt	-2.5	5052	-1	3	-26	6
COc1cccc2cc(C(=O)OCC(=O)N3CC(C)OC(C)C3)c(=O)oc12 (stereo unspecified)	nt	3.5	4123	4	10	-98	2
CNC(=S)NNC(=O)c1c(C)nc2cc(C)ccn12	2	-0.6	5583	9	-4	-18	2
CN1CCc2nc3sc(C#N)c(N)c3c(-c3cccs3)c2C1	-12	-0.7	19864*	4	0	-9	0
CN(CC(=O)Nc1cccc(F)c1)C(=O)CCC1CCCCC1	-4	-4.7	4988	-8	-9	-15	4
COc1cc(NC(=O)c2ccccc2)cc(OC)c1	5	5.1	4042	18	19	-71	-1
CCc1ccc(NC(=O)COC(=O)c2nc3nc(C)cc(C)n3n2)cc1	nt	3.0	3037	6	2	-9	5
